# Source: PubChem (several laboratories)
# RanGTP-Impb inh = disruptors of Ran-importin-beta complex formation – biochemical, FRET, CFP-Ran, YFP-importin-beta, homogeneous, primary screen | cell-free CFP-Ran/YFP-importin-beta FRET ratio | inhibition, % (test concentration not listed) | 1.1% of 300,000 active | AID 2216;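 active = most replicates above 15%; inconclusive = exactly half above 15%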;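 note: 0% = DMSO wells and 100% = Ran loaded with GDP instead of GTP; wells of about 40 µL received 100 nL stock; the first replicate is given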
# Vif TR-FRET = inhibitors of Vif binding to APOBEC3G peptide, primary screen, biochemical, TR-FRET, GST-Vif 1-94, biotin-A3G peptide, dose response retest (AID 1117319). TR-FRET GST-Vif / biotin-A3G peptide binding; higher % means a stronger effect; test concentration not given here; strong numbers were not always called active. inhibition, %, or IC50 in µM where a hit was titrated. 0.57% of 260,000 active;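 active = above the screen mean plus three standard deviations and confirmed in dose response; inconclusive = results disagree or hit not tested in dose response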;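 note: Vif residues 1-94 fused to GST binding biotinylated APOBEC3G peptide 110-148; 0% = full assay without inhibitor and 100% = GST in place of GST-Vif; retest series ran down from 100 µM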
# FGF22 binding = shifts melting point of recombinant human FGF22; 1.5% of 340,000 active; recombinant FGF22 thermal shift, SYPRO orange fluorescence; percent of sucrose octasulfate shift, DMSO zero; calls only at 9.99 µM;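 active = melting point raised past a set limit in the mean and every replicate; inconclusive = no clear call; three in four hits are not shown here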
# Target sequence (Q9HCT0 whole entry, looked up): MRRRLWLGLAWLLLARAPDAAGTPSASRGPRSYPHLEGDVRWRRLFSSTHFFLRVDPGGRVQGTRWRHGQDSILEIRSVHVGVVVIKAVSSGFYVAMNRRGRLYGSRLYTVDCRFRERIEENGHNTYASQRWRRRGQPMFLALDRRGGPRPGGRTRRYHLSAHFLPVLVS
# AF4-AF9 inh = inhibitors of human MLL-AF4/AF9 interaction; inhibition, % at 10 µM; P42568; 0.47% of 350,000 active; AlphaScreen, biotin-AF4 peptide binding to FLAG-AF9; AID 651704;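 active = every replicate reaching a set inhibition limit, whatever the replicate mean, cut at about 25% in these data; inconclusive = mean inhibition reaches that limit but some replicates miss it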;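 note: 0% = plate neutral control median and 100% = total signal loss; the record names both 10 and 1 µM as test concentration; the first replicate is given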
# Ecoli growth = blocks Escherichia coli growth; OD600, 23 h; active compounds read low; OD600 absorbance (no concentration beside the values); 0.21% of 330,000 active; AID 1053175;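 active = OD600 absorbance below the run mean of sample wells minus 3.6 SD, in any replicate, cut at about 0.56 in these data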;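 note: stock transfer was 300 nL into about 60 µL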
# HNF4A DNA FP = change in binding of human HNF4 alpha to DNA | P41235 | HNF4a-FITC DNA binding, fluorescence polarization, 1 h | activity change, % at 10 µM | 0.3% of 360,000 active | AID 1224865; in the data active = activity change above about 30%, passing the limit was not always enough;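 note: controls were the assay level and a saturating level of protein; the project sought stronger binding though the title names inhibitors; some compounds called inactive have numbers as strong as hits; positive values seem to mean higher polarization but the record does not say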
# Target sequence (P41235 whole entry, looked up): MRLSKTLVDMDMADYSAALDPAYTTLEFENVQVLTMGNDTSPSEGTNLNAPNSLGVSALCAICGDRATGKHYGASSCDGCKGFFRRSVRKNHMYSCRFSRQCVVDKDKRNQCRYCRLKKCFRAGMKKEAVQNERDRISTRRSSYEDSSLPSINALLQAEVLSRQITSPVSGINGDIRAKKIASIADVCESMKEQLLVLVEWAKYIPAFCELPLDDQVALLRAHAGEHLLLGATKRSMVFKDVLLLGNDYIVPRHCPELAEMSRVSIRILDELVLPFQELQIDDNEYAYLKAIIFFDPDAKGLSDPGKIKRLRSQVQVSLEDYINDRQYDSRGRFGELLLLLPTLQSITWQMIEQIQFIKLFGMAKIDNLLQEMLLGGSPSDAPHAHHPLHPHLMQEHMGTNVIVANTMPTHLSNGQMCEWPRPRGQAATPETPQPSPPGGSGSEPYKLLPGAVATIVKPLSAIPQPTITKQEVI
# UCH37 inh = inhibitors of human deubiquitinating enzyme UCH37 | inhibition, % (no concentration beside the values) | AID 588478 | purified proteasome/UCH37, Ub-AMC cleavage fluorescence | 0.33% of 330,000 active | Q9Y5K5;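 active = mean of two replicates above 20%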;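 note: 0% = compound-free wells with enzyme and 100% = wells lacking proteasome; stock transfer was 100 nL into about 20 µL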
# Target sequence (Q9Y5K5 whole entry, looked up): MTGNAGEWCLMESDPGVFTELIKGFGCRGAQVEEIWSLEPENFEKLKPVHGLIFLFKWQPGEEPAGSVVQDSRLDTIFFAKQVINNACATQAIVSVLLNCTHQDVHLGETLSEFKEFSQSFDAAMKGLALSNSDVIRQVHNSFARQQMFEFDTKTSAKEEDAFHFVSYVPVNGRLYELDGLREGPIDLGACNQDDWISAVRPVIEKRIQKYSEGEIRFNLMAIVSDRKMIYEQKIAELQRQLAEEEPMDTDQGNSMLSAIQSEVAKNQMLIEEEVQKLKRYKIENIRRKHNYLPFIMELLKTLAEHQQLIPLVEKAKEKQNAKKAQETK
#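 system = Proteasome-associated human UCH37 deubiquitinase | amount = 0.15 nM proteasome as dispensed | medium = pH 7.4 Tris-HCl (50 mM) with ovalbumin, ATP-MgCl2, DTT | incubation = 30 min preincubation with enzyme, 25 min cleavage at room temperature | detection = AMC fluorescence 355/460 nm | read-out basis = percent inhibition | controls = no-proteasome and no-compound wells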
# An asterisk follows results filed as active; i = inactive; ? = inconclusive; / = no result given; & = joins results of further samples. Not all compounds are listed; count on the stated rates, not on these rows.
SMILES,RanGTP-Impb inh,Vif TR-FRET,FGF22 binding,AF4-AF9 inh,Ecoli growth,HNF4A DNA FP,UCH37 inh
CCOC(=O)c1cn(CC)c2c(ccc3ccccc32)c1=O,2.6,/,i,-9.3,0.64,0.6,-0.9
CCC(C(=O)NCCc1ccco1)n1nc(C)c2c(C)n(-c3ccccc3)nc2c1=O (centres undefined),-1.8,/,i,-3.4,0.67,1.1,3.9
CC(Oc1ccc(Cl)cc1Cl)C(=O)NNC(=O)c1ccncc1 (centres undefined),0.3,7%,i,-4.9,0.7,1.6,3.3
CCCCCN1CSC(=S)N(Cc2ccccc2)C1,-3.1,-7%,i,-6.8,0.58,-1.1,1.6
CC(C)(C)N(Cc1ccccc1)C(=O)COC(=O)C1=NN(c2ccccc2)C(=O)CC1,/,0%,i,1.0,0.71,-1.6,4.8
CC(C)CN(C(=O)COc1ccc2ccc(=O)oc2c1)C1CCS(=O)(=O)C1 (centres undefined),?,6%,i,0.8,0.69,1.3,-26
Cc1ccc(N(Cc2ccc([N+](=O)[O-])cc2)C(=O)c2ccco2)cc1C,3.7,8%,/,/,0.68,5.8,3.8
CCn1nc(C)c(NC(=O)/C=C/c2cnn(C)c2C)c1C,?,7%,/,/,0.67,0.1,0.0
CC(C)C(NC(=S)NCc1ccccc1)C(=O)O (centres undefined),-1.3,2%,/,/,0.73,-0.4,3.5
CCc1nn(CC(=O)NCCN2CCN(C)CC2)c(=O)c2cc3c(OC)cccc3n12,2.3,/,i,1.4,0.7,1.2,i
Cc1nn(Cc2ccc([N+](=O)[O-])cc2)c(=O)n1-c1cccc(F)c1,0.5,27%,/,/,0.66,-2.2,1.0
O=C(CNC(=O)c1ccco1)N/N=C/c1ccc(O)c([N+](=O)[O-])c1,-2.6,?,i,-1.5,/,-1.9,/
CCOC(=O)Cn1nc(-c2ccc(C)cc2)c2ccccc2c1=O,-2.2,-1%,i,-0.7,/,2.8,/
O=C(Nc1ccccc1Cl)c1cccc(NC(=O)C2CCCC2)c1,1.6,/,i,-9.2,0.65,-0.4,4.3
COc1ccc(OC)c(N/C(=N/C(=S)Nc2ccccc2)Nc2nc(C)cc(C)n2)c1,-2.9,/,i,0.0,/,-2.8,/
C=CCSc1nnc(Cc2c(C)[nH]c3ccccc23)o1,?,13%,i,2.6,0.75,1.3,7.4
CCC[C@@H](NS(=O)(=O)c1ccc(C)cc1)C(=O)Oc1ccc2c3c(c(=O)oc2c1)CCC3,1.3,/,/,/,0.64,1.1,i
O=C(C[C@@H]1C/C=C\CC[C@H](Cc2ccc(F)cc2)C(=O)OC[C@@H](Cc2ccccc2)NC1=O)NCCO,/,0%,i,1.8,0.68,1.3,4.0
Cc1c(NC(=S)N/N=C/c2cc([N+](=O)[O-])ccc2O)c(=O)n(-c2ccccc2)n1C,0.1,18%,i,4.2,/,3.9,/
O=C(O)C1C2C=CC(C2)C1C(=O)Nc1ccc(C(=O)N2CCCCC2)cc1 (centres undefined),/,5%,/,/,0.65,-2.0,0.5
Cc1c(NCc2ccccc2O)c(=O)n(-c2ccccc2)n1C,4.1,-1%,i,-6.9,0.72,-0.8,1.7
CN(c1ccc(C(=O)Nc2ccc(Cl)cn2)cc1)S(=O)(=O)c1ccccc1,3.0,18%,i,-3.3,0.7,0.4,3.5
CCN1CCN(c2c(Cl)cccc2NC(=O)c2cc3ccccc3o2)CC1,-1.9,/,i,6.3,0.68,5.5,-2.5
CC(=O)OCC1OC(OC(C)=O)C(NC(=O)c2cccnc2)C(OC(C)=O)C1OC(C)=O (centres undefined),0.0,/,i,-2.7,0.68,-1.0,3.5
CCOc1ccccc1NC(=O)c1ccc(S(=O)(=O)N(C)C)cc1,0.0,-2%,/,/,0.67,-0.4,0.3
O=C(COC(=O)c1cccc2ccccc12)NCCCc1ccccc1,0.9,-6%,/,/,0.7,0.8,-1.8
c1ccc(Cn2ncc3c(NCc4ccco4)ncnc32)cc1,-0.5,?,/,/,0.71,-3.2,1.4
CCOc1ccc(S(=O)(=O)N2CCCCC2)cc1NS(=O)(=O)c1cccs1,/,-5%,i,-0.8,0.66,-0.7,1.5
Cc1cccc(C)c1NC(=S)/C(=C(\[O-])c1cccs1)[n+]1ccccc1,-5.7,8%,/,/,0.64,0.2,14
CN(CCOc1ccccc1)C(=O)c1cc(-c2ccco2)nc2ccccc12,/,14%,i,0.2,/,-7.4,/
Cc1ccc(NCc2nc3ccccc3n2C)c(C)c1,-1.3,/,i,14,0.63,-6.5,2.1
Cn1ccnc1/C(=N\NC(=O)c1ccc(O)cc1)c1cccc([N+](=O)[O-])c1,1.6,6%,i,-2.0,/,-2.7,/
O=C(Nc1ccccc1)c1sc2cc(C(F)(F)F)cnc2c1-c1cccs1,4.5,-178%,/,/,0.72,4.3,-58
CC(=O)Nc1c2c(nn1-c1ccc(C)cc1)CSC2,-4.5,5%,i,-2.1,0.67,1.3,2.7
CCc1noc2c1/C(=N\O)CC(c1ccccc1)C2 (centres undefined),0.4,3%,/,/,/,-3.1,/
c1ccc2sc(N3CN(CCN4CCOCC4)CN(c4nc5ccccc5s4)C3)nc2c1,-4.5,19%,/,/,0.73,-5.2,2.2
OCC[C@H]1C[C@@H](O)[C@H](O)[C@@]2(CCCCO2)O1,4.1,/,i,-6.9,/,0.9,/
CC(=O)Oc1ccc(-c2nc3ccccc3c(=O)o2)cc1,8.7,/,i,-4.8,0.66,4.6,2.7
CC1(C)Cc2ccccc2-c2nnc(-c3ccccc3)n21,0.4,32%,/,/,0.72,-1.1,0.3
Cn1cnnc1Sc1nc2c(c(=O)n(C)c(=O)n2C)n1Cc1ccccc1Cl,?,13%,/,/,0.66,-3.9,1.2
COc1ccc(C=C2NC(=O)NC2=O)cc1O,/,0%,i,-4.1,/,2.6,/
COc1cccc2c1OCC1COc3c(c(=O)n(C)c(=O)n3C)C21 (centres undefined),-3.7,0%,/,/,0.73,1.2,-5.8
COc1cc(C(=O)Nc2ccc(C(=O)NCC3CCCO3)cc2)cc(OC)c1OC (centres undefined),0.2,0%,i,-1.2,0.66,-3.3,2.4
COc1ccc(-n2c(O)cnc2Nc2nc(C)cc(C)n2)cc1OC,2.3,-5%,i,-57,0.71,-1.3,0.4
CC(C)C(c1nnnn1CC1CCCO1)N1CCN(Cc2ccc3c(c2)OCO3)CC1 (centres undefined),-1.2,14%&2%,/,/,0.76,1.4,1.4
O=C(O)C1CCN(Cc2oc(CO)cc(=O)c2O)C1 (centres undefined),/,-2%,i,-0.8,/,2.0,/
O=C(Nc1ccc2c(c1)OCO2)c1cccc(S(=O)(=O)N2CCCC2)c1,1.9,67%,i,5.9,0.71,1.8,0.6
CC(=O)c1c(C)[nH]c(C(=O)OCC(=O)Nc2ccc(Cl)cc2[N+](=O)[O-])c1C,-0.1,8%,i,1.1,0.69,-2.2,4.6
Cc1ccc(Cl)cc1NC(=O)C1CCCN(S(=O)(=O)c2c(C)noc2C)C1 (centres undefined),-0.4,?,/,/,0.71,3.2,3.8
COc1cccc2cc(-c3cc(=O)oc4cc(C)c(O)cc34)oc12,4.5,/,i,-5.7,0.72,-5.1,4.6
O=C(NC1CCCC1)c1ccc(COCC(F)(F)C(F)F)o1,0.4,-1%,i,5.8,0.7,-0.1,0.5
O=C1COc2ccccc2N1Cc1c(F)cccc1Cl,2.9,-5%,i,-1.2,0.67,0.7,5.4
O=C(Nc1cnccc1C(F)(F)F)NC1CCCCC1,1.2,-5%,i,/,0.68,3.4,2.7
CC(C)=C(C#N)c1nc2ccccc2s1,-0.9,-15%,/,/,0.65,-0.7,6.0
N#Cc1cccc(OC(=O)c2ccc3c(=O)n4c(nc3c2)CCC4)c1,3.1,1%,i,-0.8,0.72,-1.0,2.9
CC1(C)NC(=O)N(CC(O)CN(c2ccccc2)S(=O)(=O)c2ccc([N+](=O)[O-])cc2)C1=O (centres undefined),-8.1,10%,i,0.4,0.7,5.5,-0.2
Cc1ccc(S(=O)(=O)NC2CCC(C(=O)O)CC2)cc1 (centres undefined),-7.0,6%,/,/,0.66,-2.7,2.8
O=C(O)C1C2CCC(CC2)C1C(=O)O (centres undefined),/,4%,i,-1.4,0.66,5.7,1.2
C=CCSc1nnc(NC(=O)c2cccc(S(=O)(=O)N(C)c3ccccc3)c2)s1,-0.7,-44%,/,/,0.67,-1.1,-0.8
CCOc1ccccc1NC(=O)CCNS(=O)(=O)c1ccc(NC(C)=O)cc1,2.3,-11%,i,-1.4,0.66,-2.8,2.8

# Quoted at random: 4 entries already listed.
SMILES,RanGTP-Impb inh,Vif TR-FRET,FGF22 binding,AF4-AF9 inh,Ecoli growth,HNF4A DNA FP,UCH37 inh
CC(C)=C(C#N)c1nc2ccccc2s1,-0.9,-15%,/,/,0.65,-0.7,6.0
O=C1COc2ccccc2N1Cc1c(F)cccc1Cl,2.9,-5%,i,-1.2,0.67,0.7,5.4
C=CCSc1nnc(NC(=O)c2cccc(S(=O)(=O)N(C)c3ccccc3)c2)s1,-0.7,-44%,/,/,0.67,-1.1,-0.8
CCOc1ccccc1NC(=O)CCNS(=O)(=O)c1ccc(NC(C)=O)cc1,2.3,-11%,i,-1.4,0.66,-2.8,2.8

# More entries follow.
SMILES,RanGTP-Impb inh,Vif TR-FRET,FGF22 binding,AF4-AF9 inh,Ecoli growth,HNF4A DNA FP,UCH37 inh
C/C(=N\NC(=O)CNc1cccc(C(F)(F)F)c1)c1cccs1,-0.5,?,i,0.9,/,-1.7,/
CC(NC(=O)c1ccccc1F)c1cccc2ccccc12 (centres undefined),-1.9,/,i,-2.9,0.7,3.8,2.8
CCN1CCN(c2ccc(S(=O)(=O)N3CCCCC3)cc2NC(=O)c2cc3ccccc3o2)CC1,?,-1%,i,11,0.75,1.8,-0.7
Cc1ccc(N(C)S(=O)(=O)c2cccc(C(=O)Nc3ccc(C)cn3)c2)cc1,-1.1,/,i,2.4,0.69,0.7,0.9
O=C(O/N=C\c1ccc(N2CCCCC2)c([N+](=O)[O-])c1)c1ccc(Cl)cc1Cl,-5.3,30%,/,/,/,-2.7,/
CCN(CC)c1ccc([N+](=O)[O-])cc1C(=O)O,4.1,13%,i,-43,0.69,4.9,12
CS(=O)(=O)c1nc(S(=O)(=O)c2ccc(Cl)cc2)c(NCCCN2CCOCC2)s1,5.7,/,i,-3.2,0.67,-5.4,3.7
CN1C(=O)[C@@H]2[C@H](C1=O)[C@@H]1C(=O)Nc3ccccc3C(=O)N1[C@@H]2c1ccc(Br)cc1,2.0,/,i,0.7,/,0.8,-32
C=CCN1C(=O)C(C)(C)Nc2ccccc21,-3.2,6%,/,/,0.68,4.2,-1.4
O=C(NN=C1CCCCCC1)c1cc2ccccc2cc1O,-6.9,/,i,2.0,0.7,-5.5,-16
CCCCC(=O)NCCNc1nc2c(c(=O)n(C)c(=O)n2C)n1Cc1ccccc1,-3.5,-3%,/,/,0.7,0.6,0.3
Cc1cc(OCC(=O)Nc2nnc(C3CC3)s2)ccc1Cl,/,/,i,-6.6,/,3.0,/
c1coc(CNc2c3c(nc4ncnn24)CCC3)c1,1.1,19%,/,/,0.65,1.6,5.1
N#C/C(=C\c1ccncc1)C(=O)Nc1ccc(C(=O)O)cc1,-1.9,11%,i,-8.9,0.68,-1.8,2.0
COc1ccccc1NC(=O)C(C)OC(=O)Cc1ccsc1 (centres undefined),/,-2%,i,-0.2,0.66,-2.0,0.0
COc1cc(C(=O)Nc2cccc(-c3nc4ccccc4o3)c2C)cc(OC)c1OC,-0.3,0%,/,/,0.77,0.2,-4.6
O=C(Cc1ccccc1)Nc1nnc(-c2ccccc2)o1,2.9,/,i,-1.9,0.7,0.8,4.6
